B2AR ag: activates human beta-2 adrenergic receptor causing internalization. Am2.2-beta2AR cells, FAP receptor internalization, flow cytometry; reference of the scale not given here. response, % (no concentration beside the values). 0.43% of 340,000 active;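 active means response above a set limit, near 3 SD of response in nonfluorescent compounds, cut at about 42% in these data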;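 further: stock transfer was 100 nL into about 11 µL; a reference agonist was the positive control; negative values mostly stem from fluorescent compounds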
Target sequence (P07550 whole entry, looked up): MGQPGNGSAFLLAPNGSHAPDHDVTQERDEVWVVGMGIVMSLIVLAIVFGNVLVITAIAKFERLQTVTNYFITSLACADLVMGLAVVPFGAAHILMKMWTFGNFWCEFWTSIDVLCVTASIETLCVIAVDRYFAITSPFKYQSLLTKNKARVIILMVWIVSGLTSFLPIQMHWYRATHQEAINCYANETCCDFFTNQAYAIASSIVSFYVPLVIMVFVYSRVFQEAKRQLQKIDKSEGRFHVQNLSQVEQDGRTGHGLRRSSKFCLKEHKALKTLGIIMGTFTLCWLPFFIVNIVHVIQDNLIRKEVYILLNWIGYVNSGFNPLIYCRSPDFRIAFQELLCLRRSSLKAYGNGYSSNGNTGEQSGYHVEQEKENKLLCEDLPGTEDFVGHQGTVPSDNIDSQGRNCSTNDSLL
RanGTP-Impb inh: disruptors of Ran-importin-beta complex formation – biochemical, FRET, CFP-Ran, YFP-importin-beta, homogeneous, primary screen. inhibition, % (test concentration not listed). cell-free CFP-Ran/YFP-importin-beta FRET ratio. 1.1% of 300,000 active;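 active means most replicates above 15%; inconclusive means exactly half above 15%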;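 further: 0% = DMSO wells and 100% = Ran loaded with GDP instead of GTP; wells of about 40 µL received 100 nL stock; the first replicate is given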
ALR H2O2 inh: human ALR oxidase inhibition via reduced H2O2. inhibition, % (test concentration not listed). 3.8% of 290,000 active. purified ALR, DTT oxidation, H2O2 HRP-luminol luminescence. AID 485317. P55789;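 active means mean and each replicate at 75% or more; inconclusive means only one of the two met; inactive means neither met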;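 further: stock transfer was 7.5 nL into about 7.5 µL; 0% = neutral wells and 100% = wells with inactivated enzyme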
Target sequence (P55789 whole entry, looked up): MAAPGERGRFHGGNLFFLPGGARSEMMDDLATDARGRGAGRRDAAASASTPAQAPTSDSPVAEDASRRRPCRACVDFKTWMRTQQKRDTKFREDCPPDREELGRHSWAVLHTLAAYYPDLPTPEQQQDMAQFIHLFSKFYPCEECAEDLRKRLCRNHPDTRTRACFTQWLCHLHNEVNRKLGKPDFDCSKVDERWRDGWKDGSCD
LANA-H2B inh: blocks KSHV LANA binding to histone H2A/H2B | 0.6% of 320,000 active | Q9QR71 | inhibition, % (no concentration beside the values) | cell-free LANA-H2A/H2B peptide, fluorescence polarization; in the data active means inhibition mostly above about 10%, no sharp cut-off; inactive means mostly below about 6.7%;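 further: stock transfer was 7.5 nL into about 10 µL; 0% = median of vehicle wells and 100% = median of positive control wells; one replicate is shown; the record names a cut of 25% in any replicate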
HNF4A DNA FP: change in binding of human HNF4 alpha to DNA; P41235; HNF4a-FITC DNA binding, fluorescence polarization, 1 h; activity change, % at 10 µM; 0.3% of 360,000 active; in the data active means activity change above about 30%, passing the limit was not always enough;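 further: controls were the assay level and a saturating level of protein; the project sought stronger binding though the title names inhibitors; some compounds called inactive have numbers as strong as hits; positive values seem to mean higher polarization but the record does not say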
Target sequence (P41235 whole entry, looked up): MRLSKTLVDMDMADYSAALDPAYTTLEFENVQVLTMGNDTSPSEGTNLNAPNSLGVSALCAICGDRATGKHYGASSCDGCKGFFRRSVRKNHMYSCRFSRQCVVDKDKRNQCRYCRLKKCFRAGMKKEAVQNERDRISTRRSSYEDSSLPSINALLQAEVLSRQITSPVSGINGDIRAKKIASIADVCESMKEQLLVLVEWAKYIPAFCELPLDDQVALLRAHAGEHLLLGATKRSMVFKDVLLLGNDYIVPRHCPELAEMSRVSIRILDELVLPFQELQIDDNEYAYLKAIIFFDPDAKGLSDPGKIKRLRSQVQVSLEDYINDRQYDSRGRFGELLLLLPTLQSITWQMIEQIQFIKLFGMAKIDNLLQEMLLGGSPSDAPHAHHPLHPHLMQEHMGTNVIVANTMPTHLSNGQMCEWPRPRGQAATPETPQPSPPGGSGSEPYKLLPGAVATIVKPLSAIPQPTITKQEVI
Vif TR-FRET: HIV-1 Vif–A3G interaction blockers – biochemical, TR-FRET, GST-Vif 1-94, biotin-A3G peptide, dose response retest, primary screen (AID 1117319); TR-FRET GST-Vif / biotin-A3G peptide binding; higher % means a stronger effect; test concentration not given here; strong numbers were not always called active; inhibition, %; hits with a dose series show IC50 in µM; 0.57% of 260,000 active;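 active means above the screen mean plus three standard deviations and confirmed in dose response; inconclusive means results disagree or hit not tested in dose response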;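 further: Vif residues 1-94 fused to GST binding biotinylated APOBEC3G peptide 110-148; 0% = full assay without inhibitor and 100% = GST in place of GST-Vif; retest series ran down from 100 µM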
Calb FLC: C. albicans growth modulation with fluconazole; C. albicans CaCi-2 (fluconazole-resistant clinical isolate) + fluconazole, Alamar Blue growth, 48 h; growth inhibition, % (concentration not given with the values); 0.57% of 300,000 active; AID 1979;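 active means most replicates above 75%; inconclusive means exactly half above 75%; inactive means most below 75%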;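 further: all wells also contain fluconazole at 8 µg/ml as a sub-toxic cotreatment; 0% = median of DMSO wells and 100% = median of geldanamycin control wells; wells of about 8 µL received 7.5 nL stock; the first replicate is given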
Active calls of the source: *; i = inactive; ? = inconclusive; . = not tested or not shown; & = joins results of further samples.

SMILES	B2AR ag	RanGTP-Impb inh	ALR H2O2 inh	LANA-H2B inh	HNF4A DNA FP	Vif TR-FRET	Calb FLC
CCCOc1ccc(-c2c(C(=O)N/N=C/c3ccccc3)nnn2-c2nonc2N)cc1	-8	0.2	-2	4.4	0.1	-9%	24
COc1ccc(S(=O)(=O)Cc2ccc(C(=O)N3CCN(c4cccc(C)c4C)CC3)o2)cc1	21	-1.5	33	-2.3	-2.9	5%	15
N#Cc1ccc(COc2cccnc2[N+](=O)[O-])cc1	-2	-0.8	-3	-1.0	3.6	.	5
O=C(COC(=O)c1cnccn1)Nc1ccc(Cl)cc1	0	-2.3	1	9.3	-0.6	?	6
O=C(O)c1cnn2c1C(=O)N(Cc1cccs1)CC2	4	.	-5	-1.1	-5.5	1%	-1
COc1cccc(NC(=O)CCNS(=O)(=O)c2cccc3nonc23)c1	0	6.1	.	-1.0	2.5	0%	-17
CC(C)(C)NC(=O)C(c1ccc(-c2ccccc2)cc1)N(C[C@H]1CC[C@@H]([C@@H]2CC[C@H](CO)O2)O1)C(=O)c1cccc(Cl)c1 (some centres undefined)	-3	.	.	.	0.1	-10%	.
CN1CCN(c2nnc(-c3ccc(Cl)cc3)c3ccccc23)CC1	0	-3.6	-9	-4.4	2.2	4%	-4
CC(NC(=O)OC(C)(C)C)C(=O)Oc1ccc2ccc(=O)oc2c1 (centres undefined)	-6	.	9	4.6	0.9	-5%	.
CCCN(CC1CC1)C(=S)NC(=O)C1CC1	-7	-2.0	35	8.1	-2.5	9%	-23
c1ccc2[nH]c(SCCN3CCOCC3)nc2c1	-5	9.1	-17	-0.3	-1.2	7%	-9
CC1Cc2ccccc2N1C(=O)COC(=O)/C=C/c1ccc(F)cc1 (centres undefined)	6	.	-4	-6.4	5.0	-11%	.
O=[N+]([O-])c1ccccc1N/N=C/c1cccc(O)c1O	4	-2.1	.	0.5	-0.9	17%	29
O=C(NCc1ccccc1)C1CCN(C(=O)NCc2ccccc2)CC1	-2	-1.5	-1	0.7	0.1	6%	-9
Cc1cc(C)n(CC(O)COc2ccc3ccccc3c2)n1 (centres undefined)	6	-0.3	.	.	2.4	-5%	4
O=C(Nc1ccc(C(F)(F)F)cc1)c1cc(S(=O)(=O)NCC2COc3ccccc3O2)ccc1F (centres undefined)	15	-0.7	-5	-1.2	-1.6	29%	-6
CN(C(=O)c1cc2ccccc2oc1=O)C1(C)CCS(=O)(=O)C1 (centres undefined)	-6	-0.9	-1	-3.3	3.1	0%	1
CCN(CCCNC(=O)C1CCC(=O)N1C(C)C)c1cccc(C)c1 (centres undefined)	-7	-0.1	99*	-3.6	-0.6	7%	-2
COc1cc(OC)c(NC2=NCCCCC2)cc1Cl	4	?	-20	2.3	3.1	6%	-6
CCOC(=O)[C@H]1[C@H]2COc3ccc(OC)cc3[C@@H]2N2C(=O)CN(Cc3ccc(C)cc3)C(=O)[C@@]12C	-3	.	3	6.3	-0.7	.	.

An excerpt of these results, with bars between the fields.
Molecule | B2AR ag | RanGTP-Impb inh | ALR H2O2 inh | LANA-H2B inh | HNF4A DNA FP | Vif TR-FRET | Calb FLC
O=[N+]([O-])c1ccccc1N/N=C/c1cccc(O)c1O | 4 | -2.1 | . | 0.5 | -0.9 | 17% | 29
O=C(NCc1ccccc1)C1CCN(C(=O)NCc2ccccc2)CC1 | -2 | -1.5 | -1 | 0.7 | 0.1 | 6% | -9

The main list resumes; the 2 compounds before the break are reprinted first.
SMILES	B2AR ag	RanGTP-Impb inh	ALR H2O2 inh	LANA-H2B inh	HNF4A DNA FP	Vif TR-FRET	Calb FLC
COc1cc(OC)c(NC2=NCCCCC2)cc1Cl	4	?	-20	2.3	3.1	6%	-6
CCOC(=O)[C@H]1[C@H]2COc3ccc(OC)cc3[C@@H]2N2C(=O)CN(Cc3ccc(C)cc3)C(=O)[C@@]12C	-3	.	3	6.3	-0.7	.	.
Cc1cccc([C@@H]2[C@@H]3C(=O)N(Cc4ccccc4)C(=O)[C@@H]3[C@]3(Cc4ccc(Cl)cc4)C(=O)N(c4cccc(Cl)c4)C(=O)N23)c1	-12	-3.6	-10	1.4	0.5	.	-12
CCCn1cnc2c(=S)nc(N)[nH]c21	-1	4.3	9	1.5	0.1	.	1
CC1CCN(C(=O)c2ccc(NS(=O)(=O)c3ccc4[nH]c(=O)[nH]c4c3)cc2)CC1	-12	3.3	0	0.0	4.6	-3%	.
COc1ccc(NC(=O)c2ccco2)cc1NC(=O)c1c(OC)cccc1OC	-10	-3.9	-8	5.8	2.1	.	2
CCOc1ccc(OCC)c(NC(=O)CN2CCN(c3ccc(C)cc3C)CC2)c1	16	6.3	-13	5.2	0.8	15%	4
O=C(COc1ccc(Br)cc1Br)NC1CCCC1	-5	3.6	-1	5.1	-0.5	0%	-5
CC(C)(C)n1ncc2c(=O)n(CC(=O)N3CCCC3)cnc21	-8	6.4	.	-0.1	2.7	1%	-49
Nc1[nH]nc2nc(N3CCCC3)nc(-c3ccccc3)c12	-6	2.9	.	0.7	3.3	8%	11
O=C(NCc1ccccc1Br)c1ccco1	-5	2.9	2	2.7	-4.4	0%	-3
Cc1nn(C)cc1C=NCCOCc1ccccc1	2	0.9	3	-1.8	2.2	-3%	-27
COc1ccc(S(=O)(=O)N(CC(=O)Nc2ccc(S(=O)(=O)N3CCOCC3)cc2)c2ccccc2)cc1	-1	-3.5	-7	2.5	-0.3	.	-6
CCCN(C(=O)CSc1nnc(N)s1)c1c(N)n(Cc2ccccc2)c(=O)[nH]c1=O	-4	.	.	.	-0.7	-13%	.
Cn1c(=O)c(C(=O)Nc2ncccc2O)c(O)c2ccccc21	-5	?	63	0.2	-1.4	-4%	-6
CCc1ccc(NC2=NC(C(=O)NC3CCCCC3)CC(=O)N2)cc1 (centres undefined)	-4	0.1	-3	-0.7	0.2	10%	0
Cc1nc2scc(C)n2c(=O)c1S(=O)(=O)N1CCN(c2ccc(F)cc2)CC1	-3	?	23	2.9	-0.3	.	-2
CCCNS(=O)(=O)c1ccc(CCC(=O)Nc2ccc3c(c2)OCO3)cc1	2	-1.0	-6	-5.1	0.6	3%	-14
CC(C)NC(=O)C(C)Oc1ccc(S(=O)(=O)NCc2ccc3c(c2)OCO3)cc1 (centres undefined)	3	-1.1	1	0.7	4.9	.	3
COc1cc2c(=O)n(CCC(=O)NCC3CCCO3)c(=O)n(CC(=O)c3ccc(Cl)cc3)c2cc1OC (centres undefined)	-6	3.3	.	1.5	-1.3	-16%	2
COCCN(C(=O)CCCC(=O)Nc1ccccn1)C(C(=O)NC1CCCC1)c1ccc(C)cc1 (centres undefined)	5	-1.9	-1	0.1	-0.9	23%	-3
O=C(NCCCN=C1NS(=O)(=O)c2ccccc21)c1ccc(Cl)cc1	4	2.5	.	-4.3	5.0	-3%	-6
CC(=O)C(C(c1ccccc1)c1c[nH]c2ccccc12)[N+](=O)[O-] (centres undefined)	6	-1.9	25	1.6	0.6	-7%	1
CCC1CCCCN1Cc1nc2ccccc2c(=O)n1CC(C)=O (centres undefined)	3	1.6	1	6.1	-0.3	.	5
Fc1cccc(NC(=S)NCCN2CCOCC2)c1	5	3.7	-8	-1.9	-4.2	.	4
CN(Cc1ccc(F)cc1)C(=O)c1ccc(NS(=O)(=O)c2ccc3[nH]c(=O)[nH]c3c2)cc1	13	4.4	6	-3.1	3.5	3%	-2
O=C(O)c1ccc(-n2ncc3c2/C(=C\c2cccc([N+](=O)[O-])c2)CC3)cc1	16	.	.	.	1.8	7%	.
Cc1cc(C)cc(NC(=O)CSc2ccc(-c3cccs3)nn2)c1	-2	-3.0	-5	1.8	-0.3	.	18
CC(C(=O)Nc1ccc(O)cc1)c1cccc(C(=O)c2ccccc2)c1 (centres undefined)	14	2.0	99*	5.2	3.0	4%	28
O=C(CN1C(=O)NC2(CCCC2)C1=O)Nc1ccc(Cl)cc1F	-3	0.7	4	-2.7	3.1	.	2
O=C(NCc1ccco1)c1ccc2c(c1)C(=O)N(C1CCCCC1)C2=O	1	0.8	.	0.1	-3.1	24%	33
COc1ccc(OC)c(CC(NC(C)=O)C(=O)NC2CCN(c3nc(OC)nc(OC)n3)CC2)c1 (centres undefined)	-5	-0.8	-3	7.4	3.0	14%	4
O=C(Cc1ccccc1)N1CCc2ccccc21	-4	-2.0	-2	-0.8	2.5	1%	7
COc1ccc2[nH]c(=O)c(CN(CCO)S(=O)(=O)c3ccc4c(c3)OCCO4)cc2c1	-8	-0.2	-3	2.2	-0.6	5%	4
O=C(CCNS(=O)(=O)c1ccccc1)OCC(=O)c1ccc(F)cc1	1	1.4	-1	-0.8	0.7	1%	27
Cc1cn([C@H](C(=O)NCCCCCCCCCCC(=O)N2CCN(C(=O)OC(C)(C)C)CC2)[C@@H](C)O)nn1	6	.	0	-2.9	1.5	.	.
CCc1nnc(NC(=O)CCC(=O)N2CCN(Cc3cc(Cl)ccc3OC)CC2)s1	6	6.0	2	0.5	2.7	1%&3%	8
COc1ccc(S(=O)(=O)N(C)CC(=O)N2CCCCC2)cc1Cl	-3	2.5	-3	3.2	-0.7	?	-27
O=C1CSC(c2ccc([N+](=O)[O-])cc2)N1C1CCCCC1 (centres undefined)	-3	0.2	-22	6.4	-2.0	2%	5
Cc1n[nH]c(C)c1S(=O)(=O)N1CCCC(C(=O)NC2CCCCC2)C1 (centres undefined)	14	5.9	-4	4.2	3.0	-9%	8
Cc1ccc(C(=O)Nc2nnc(S(=O)(=O)N3CCCCCC3)s2)cc1	12	-3.1	.	1.7	3.0	.	6
CCCN(Cc1ccccc1)C(=S)Nc1cccc(C(F)(F)F)c1	5	?	-3	3.9	-1.8	.	-25
COc1ccc(/C=C(/NC(=O)c2ccccc2)C(=O)NCCCn2ccnc2)cc1OC	-14	-1.2	0	-1.6	-2.0	.	-7
O=C(Nc1ccccc1)P(=O)(O)c1ccccc1	1	.	.	.	-4.6	-6%	.
Cc1cc(C)cc(OCC(=O)NNC(=O)c2ccccn2)c1	-1	.	0	i	0.6	-2%	.
Cc1ccc(-n2nc3c(c2NC(=O)/C=C\c2ccc4c(c2)OCO4)CSC3)cc1	8	-1.0	0	4.6	-2.9	-5%	3
N#Cc1c(N)c(C#N)c(-c2ccc3c(c2)OCO3)c2c1CCCC2	-3	?	-1	5.0	2.9	-9%	9
Cc1cc(=O)oc2c3c(cc(OCC(=O)NCC(=O)N[C@H](C(=O)O)C(C)C)c12)OC(C)(C)CC3	-10	3.5	3	2.9	1.0	1%	1
CCOc1cccc2cc(-c3csc(NC(=O)CCC(=O)NCCCN4CCC(C)CC4)n3)c(=O)oc12	.	3.5	99*	-2.8	.	-7%	0
O=C(NCc1ccc(Cl)cc1)c1cccc2c1C(=O)N(CC1CCCO1)C2 (centres undefined)	-12	-0.1	9	4.9	-0.2	.	1
CC(C)CC1NC(=O)N(CC(=O)Nc2ccc3c(c2)CCC3)C1=O (centres undefined)	3	-1.6	3	2.4	1.2	1%	-20
CC(NC(=O)c1ccc2c(c1)OCCO2)C(=O)O (centres undefined)	9	3.3	-10	8.6	2.4	9%	2
CCOC(=O)c1[nH]ncc1CN1CCN(Cc2ccc(C)cc2)C(CCO)C1 (centres undefined)	2	-3.5	5	-4.6	2.3	.	-14
N#Cc1nc(Cc2ccccc2)oc1N1CCC(Cc2ccccc2)CC1	3	2.3	-4	-3.3	-3.2	0%	?
Cn1c(=O)[nH]c(=O)c2c1nc(N1CCN(c3ccccc3)CC1)n2CCSc1ncccn1	-27	-2.4	29	-1.5	0.4	8%	4
CCN(Cc1ccccc1)C(=O)COC(=O)c1cnc(C)cn1	8	?	-2	-1.7	6.2	-6%	-5
CCNC(=S)Nc1ccc(N2CCCCC2)cc1	-8	0.8	99*	2.6	4.5	10%	1

Screening results deposited in PubChem by several laboratories.
